RVFV N-RNA inh = inhibitors of Rift Valley Fever Virus nucleocapsid-RNA interaction. P21700. RVFV N-RNA binding, fluorescence polarization; active compounds read low. % bound, % (no concentration beside the values). 20,000 tested, 0.1% active;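 active = between 0 and 58% in either replicate with normal brightness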;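 also: 100 nL library stock added to about 12 µL; 100% = protein and probe without compound and 0% = probe alone; numbers are from one replicate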
Target sequence (P21700 whole entry, looked up): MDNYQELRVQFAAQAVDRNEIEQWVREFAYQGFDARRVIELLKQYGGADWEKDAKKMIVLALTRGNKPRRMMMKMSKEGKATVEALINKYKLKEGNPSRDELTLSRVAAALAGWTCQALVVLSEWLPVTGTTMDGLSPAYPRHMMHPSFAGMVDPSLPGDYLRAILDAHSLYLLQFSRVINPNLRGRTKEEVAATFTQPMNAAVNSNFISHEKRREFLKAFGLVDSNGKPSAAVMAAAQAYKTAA
Starred values were filed as active, the others as inactive; & = joins results of further samples; ! = repeats disagree.

SMILES	RVFV N-RNA inh
Cc1ccc2nc(NC(=O)C3CCCC3)sc2c1	91
CCn1c(SCC(=O)N(C2CCCCC2)C2CCCCC2)nnc1-c1cc2cccc(OC)c2o1	88
O=C(Cn1c(=O)n(CC2CS2)c2ccccc21)c1ccccc1 (stereo not drawn)	79
O=C(NCCc1ccccc1)C1CCCC1	98
CC(=O)N1CCN(C2=NC(=O)/C(=C\c3ccc(-c4ccc(Cl)c(Cl)c4)o3)S2)CC1	111
CCOc1cc2c3c(c1)C1(Nc4ccccc4CO1)C(=O)N3C(C)(C)CC2C (stereo not drawn)	92
O=C(CSc1nc2c(c(=O)n1CCc1ccccc1)SCC2)N1CCCC1	98
CCC1(CC)NC(=S)N(Nc2ccccc2)C1=O	88
CCC1CCCCN1C(=O)c1cnn2cccnc12 (stereo not drawn)	103
O=C(Nc1ccccc1)c1cccc(-c2nnc(-c3ccccc3)o2)c1	91
CC(C)(CO)NS(=O)(=O)c1ccc2c(c1)oc(=O)c1cc(S(=O)(=O)NC(C)(C)CO)ccc12	105
CCC1(C2=NCCN2)Cc2ccccc2O1 (stereo not drawn)	97&89
COC(=O)c1ccc(COC(=O)c2ccco2)cc1	91
CC(NC(=O)C1CC1)C(c1cccs1)N1CCN(Cc2ccccc2)CC1 (stereo not drawn)	95
O=c1cc(-c2cccc3c2Sc2ccccc2S3)oc(N2CCOCC2)c1	119
Cc1c(OC(C)C(=O)O)ccc2c3c(c(=O)oc12)CCCC3 (stereo not drawn)	93
C=CCNC(=O)c1cc2cc(Cl)ccc2o1	98
Cc1ccc(CSc2nnc(-c3ccccc3N)c(=O)[nH]2)cc1	92
O=S(=O)(NNc1nccc(-c2cccnc2)n1)c1cccc(C(F)(F)F)c1	109
O=C1CCCN2N=C(SCc3ccc(Br)cc3)SC2=N1	95
CCn1nc(-c2cccc(Br)c2)ccc1=O	99
C(=N/n1cnnc1)/c1ccc(N2CCCCC2)cc1	113
CCOc1ccc(C(=O)Nc2c(N)nc(SC)[nH]c2=O)cc1	97
CC(=O)Nc1ccc(NC(=S)NC(=O)C2CCCC2)cc1	101
O=C(N/N=C\c1c(Cl)cccc1Cl)c1nc(CS(=O)(=O)c2ccc(Cl)cc2)no1	105
CCn1c2ccccc2c2cc(C=Nc3ccc(S(N)(=O)=O)cc3)ccc21	96
Oc1ccc(Oc2ccc(Oc3ccc(O)cc3)cc2)cc1	81
C=CCn1c(=O)c2c(ncn2C)n(C)c1=O	97
CC(C)(C)c1cc(C(=O)/C(C#N)=C/Nc2ccccc2)no1	91
CC12CC3(C)CC(C)(C1)CC(C(=O)NC(C)(C)CO)(C2)C3	87
Cc1cc(/C=N/NS(=O)(=O)c2cccc(C(F)(F)F)c2)no1	98
C=CCNC(=O)c1cc2nc(C3CC3)cc(C(F)F)n2n1	98
O=c1cc(-c2ccccc2)oc2c(O)c(O)ccc12	93
Cc1nnc2c(SC(C)C)nc3ccccc3n12	93
CCOc1cc(C=C2C(=O)N(C)C(=S)N(C)C2=O)ccc1OC(C)C(=O)O (stereo not drawn)	96
CC(C)(C)CC(C)(C)NC(=O)Cc1cccs1	97
CCn1nc(C)c(Br)c1-c1nc(-c2cccc(C(F)(F)F)c2)no1	109
CCC1=[N+]([O-])C(C)(C)C(c2ccccc2)=[N+]1[O-]	94
O=C(CC(C(=O)O)N1CCNCC1)Nc1ccccc1Cl (stereo not drawn)	98
CC(C)C(C(=O)O)N1C(=O)/C(=C/c2ccccn2)SC1=S (stereo not drawn)	94
O=C1Nc2ccccc2/C1=C/c1ccc(CN2C(=O)c3ccccc3C2=O)o1	99
NC(=O)c1cn(-c2ccccc2)nc1-c1ccccc1	91
NC(Cn1oc(=O)[nH]c1=O)C(=O)O (stereo not drawn)	98
O=C(O)CSc1nnc2n1-c1ccc(Cl)cc1NN2	56*
O=C1C2CCCN2C(=O)C2CCCN12 (stereo not drawn)	92
O=C(O)/C=C/c1cnc[nH]1	96
CC(NC(=O)COc1ccc2ccccc2c1)C(=O)O (stereo not drawn)	94
C=CCn1nnnc1SCC(=O)Nc1cccc(C(F)(F)F)c1	92
C/C(=C\C(=O)c1ccc(C)o1)Nc1ccc(C(=O)O)cc1C	95
Cc1ccc(CC(=O)NCCN(C)C)cc1	97
NCCc1ccc(O)c(O)c1	99&95
O=C(O)c1ccccc1S(=O)O	103
COc1cccc(/C=N/NC(=O)c2oc3nc(-c4ccccc4)cc(-c4ccco4)c3c2N)c1	102
COc1ccc(NC(=O)CSCc2cc(=O)[nH][nH]2)cc1	99
CCN(CC)c1ccc(CN(C)CCc2ccc(OC)c(OC)c2)cc1	104
COc1ccc(CC(=O)Nc2cc(C)c3c(=O)oc4ccccc4c3n2)cc1	99
COc1ccc(/C=C(/C#N)S(=O)(=O)c2ccccc2)cc1Cn1nc(C)cc1C	94
Cc1ccc(OC(=O)C(C)(C)C)cc1C	99
COc1ccc(-n2c(=O)c3c4c(sc3n3c(C)nnc23)COC(C(C)C)C4)cc1 (stereo not drawn)	102
CCCNC(=O)COc1ccc(OC)cc1	97

(next part)
SMILES	RVFV N-RNA inh
COc1ccc(C(=O)Nc2cc3c4c(c2)CCN4C(=O)CC3)c(OC)c1	93
CN1CCc2c(sc(NC(=O)c3ccc(S(=O)(=O)N(C)C)cc3)c2C(N)=O)C1	95
S=C(NCc1ccco1)Nc1ccc(N2CCOCC2)c2nonc12	98
N#C/C(=C\c1ccc(-c2cc(Cl)ccc2Cl)o1)C(=O)Nc1cccc2ncccc12	96
COCCCC/C(=N\OCCN)c1ccc(C(F)(F)F)cc1	96
CC1CN(c2oc(COc3ccc(Cl)cc3Cl)nc2C#N)CC(C)O1 (stereo not drawn)	96
CCOC(=O)C(C)Sc1nnc(NC(=O)Nc2ccc(F)cc2)s1 (stereo not drawn)	88
COc1cc(-c2nc3ccccc3nc2-c2ccc(O)c(OC)c2)ccc1O	89
Cc1oc(-c2ccc(Cl)cc2)cc1C(=O)/C(C#N)=C/Nc1ccccc1	85
O=C(Nc1ccc(OC(F)(F)F)cc1)Nc1cc(C(F)(F)F)ccn1	101
C=CCN1C(=O)S/C(=C/c2cn(CC(=O)O)c3ccccc23)C1=O	91
Oc1ccccc1C1=NCCNC(C(F)(F)C(F)F)=C1	112
N/C(CC(=O)Nc1cc(C(F)(F)F)ccc1Cl)=N\O	112
COc1ccc(NC2CC(=O)N(C(C)C)C2=O)cc1 (stereo not drawn)	91
S=C(NCCCN1CCOCC1)N1CCOCC1	93
CCCNC(=O)c1cccc(COCC(F)(F)C(F)F)c1	101
Cc1nc2ccc(O)cc2o1	88
CN(C)C(=O)/N=N/C(=O)N(C)C	101
CC(=O)OC(OC(C)=O)c1ccc(S(N)(=O)=O)cc1	100
N#CCCn1cc(C(=O)Nc2nccs2)c(-c2cccs2)n1	83
O=C1CSC2=NC3=C(CCc4ccccc43)C(c3ccccc3)N12 (stereo not drawn)	103
CC(O)CC(C)(C)O (stereo not drawn)	103
O=S(=O)(Cc1ccc(Cl)cc1)NCCN1CCOCC1	92
O=C(Cc1ccc(F)cc1)Nc1cc(=O)[nH]c(=O)[nH]1	95
CCCOn1nnnc1-c1ccccc1	95
CC(/C=N/n1c(-c2cccnc2)n[nH]c1=S)=C\c1ccccc1	100
S=c1c2c(nc3nc[nH]n13)CCC2	97
CCCCCCC1/C(=N/O)CCC1C(=O)OC (stereo not drawn)	102
CCN1CCC[C@H]1CNC(=O)c1c(O)c(Cl)cc(Cl)c1OC	98&100&92
Cc1ccc(C(=O)Nc2ccc(S(=O)(=O)O)c3cc(S(=O)(=O)O)cc(S(=O)(=O)O)c23)cc1NC(=O)c1cccc(NC(=O)Nc2cccc(C(=O)Nc3cc(C(=O)Nc4ccc(S(=O)(=O)O)c5cc(S(=O)(=O)O)cc(S(=O)(=O)O)c45)ccc3C)c2)c1	6.7*!
Cc1cn2cc(-c3cccc(Cl)c3)nc2s1	94
CC(C)(C)/C=C(\C#N)C(C)(C)C	110
COc1ccccc1NC(=O)c1ccc(-n2cccn2)cc1	91
C=CCN(CC=C)C(=O)/C=C/c1ccccc1	102
CC(C)NCC(O)COc1ccc(CC(N)=O)cc1 (stereo not drawn)	97&96&92
O=C(Nc1ccccc1I)C1CCCO1 (stereo not drawn)	100
C#CC(C)(O)CC (stereo not drawn)	108
CC1=NN(c2ccccc2)C(=O)C1C=C1C(=O)N(C)C(=S)N(C)C1=O (stereo not drawn)	103
Cc1cc(NC(=O)Cn2c(=O)n(CC3CCC(C(=O)NCCc4ccccc4)CC3)c(=O)c3ccccc32)n[nH]1 (stereo not drawn)	91
NC(=O)CSc1nnc(NC(=O)c2cccs2)s1	97
CCc1ccc(CCC(=O)Nc2cccc(NC(=O)CCc3ccc(CC)o3)c2)o1	90
CC1(C)CC(=O)CC(=O)S1	72
COc1cc2[nH]c(=S)n(NC(=O)CC(C)C)c(=O)c2cc1OC	86
CCOC(=O)N1CCN(C(=O)CNC(=O)c2ccc(Br)cc2)CC1	93
CCC(C)N1C(=O)S/C(=C/c2ccc(O)c(Cl)c2)C1=O (stereo not drawn)	102
Nc1oc2cc(O)ccc2c(=O)c1-c1nc2ccccc2s1	93
CCCCOc1cc(CC2CNC(=O)N2)ccc1OC (stereo not drawn)	92
CS(=O)(=O)Nc1ccc(C(=O)N2CCN(c3ccccc3)CC2)cc1	94
CN(C)c1ccnc(C(=O)O)c1	87
COc1ccc(C(=O)SC2=NC(C)CC(=O)N2)cc1OC (stereo not drawn)	106
O=C(NNc1nc(N2CCOCC2)nc(N2CCOCC2)n1)c1ccc(F)cc1	89
COC(=O)c1sccc1NC(=O)CC1C(=O)NCCN1C(=O)c1ccccc1 (stereo not drawn)	88
Cc1ccc(Cn2cnc3c(nnn3Cc3ccc(C)cc3)c2=O)cc1	87
C=CCn1ccn(-c2ccc(OCC)cc2)c(=O)c1=O	107
N=C(N)c1ccc(CS(=O)(=O)F)cc1	94
O=C(/C=C/c1ccccc1)NCc1n[nH]c(=O)c2ccccc12	101
CN1CC[C@@]2(C)c3cc(O)ccc3N(C)C12 (stereo partly drawn)	89
CCOC(=O)c1c(-n2c(C)cc(/C=C3/C(=O)NC(=O)N(CC)C3=O)c2C)sc2c1CCCC2	85
CC(N)[C@H](O)c1ccc(O)c(O)c1 (stereo partly drawn)	100
Cc1nn(C(C)(C)C)c(C)c1/C=N/OC(=O)c1cccs1	103

Continued.
SMILES	RVFV N-RNA inh
COc1ccc(NC(=S)Nc2ccn(C)n2)c(OC)c1	93
C[N+]1(C)CCc2cc3c(cc2[C@H]1[C@@H]1OC(=O)c2c1ccc1c2OCO1)OCO3	92
N#CCC(=O)c1ccc(N)cc1	94
CCn1nc(C)c(NC(=S)NCC2CCCO2)c1C (stereo not drawn)	97
CCOC(=O)N1CCN(C(=O)c2cc3cccnc3n(Cc3ccccc3)c2=O)CC1	97
CN1C2CCC1CC(OC(c1ccccc1)c1ccccc1)C2 (stereo not drawn)	97&94
O=C(CCC1CCCCC1)Nc1ccc(O)cc1	98
CCCC(CCC)(C(=O)O)C(=O)O	100
CCC(=O)N(Cc1ccc(OC)cc1)C1CC(=O)N(c2ccc(OC)cc2)C1=O (stereo not drawn)	96
N#CC(C#N)=CN1CCCCC1	92
Cc1ccc(-c2ccc(CCC(=O)O)n2NC(=O)c2ccco2)cc1	100
CC(=O)O/N=C(\N)Cc1ccc(-c2csnn2)cc1	98
CN(C)S(=O)(=O)N(C)c1ccc(O)cc1	100
CCCn1c(=O)cc(N)n(-c2ccccc2C)c1=O	98
N#Cc1ccccc1NC1=CC(=O)CCC1	99
c1ccc(NCn2cncn2)nc1	91
O=C(CCSc1nnc2c(n1)[nH]c1ccccc12)N1CCOCC1	93
CCNc1sc(S(C)(=O)=O)nc1S(=O)(=O)c1ccc(C)cc1	91
O=C1Nc2ccccc2C12OC1CCCCC1O2 (stereo not drawn)	90
C#CCSc1nc2ccccc2c(=O)n1-c1ccccc1	108
CC(C)(C)CC(C)(C)NS(=O)(=O)Cc1ccccc1	101
COc1ccccc1C1(CC(=O)O)CCOC(C(C)C)C1 (stereo not drawn)	93
Clc1ccc(-c2ccnc3nncn23)cc1	96
Cc1cc(C)nc(SC(C)C(=O)Nc2ccc(S(N)(=O)=O)cc2)n1 (stereo not drawn)	91
Cc1ccccc1OCCCCS	107
O=C(CN1CCN(Cc2ccccc2)CC1)Nc1ccccc1	100
O=C(c1cc2cc(O)ccc2[nH]1)c1cc2cc(O)ccc2[nH]1	104
CNS(=O)(=O)Cc1ccccc1Cl	98
COC(=O)C1=C(NC(=O)COc2ccc(Cl)cc2)CCS1	99
O=C(NC1=NCCS1)NC12CC3CC(CC(C3)C1)C2	97

The list is partial (hit frequency here may not be typical).
